Compound activity as filed in PubChem BioAssay.
Biofilm kill mix: mixture kills Candida albicans biofilm cells; C. albicans biofilm persisters + clotrimazole, fluorescence viability; primary screen in compound mixtures of four per well; inhibition, % at 7.6 µM; hit rate 0.02% among 120,000; AID 1242;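 active = inhibition above 30.3% in the primary screen of four-compound pools, then above 30% when the compound was retested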;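 note: compounds exposed to preformed 24 h biofilms for 48 h; the number belongs to the whole pool; some results filed as inactive read as strong as hits; inactives centre near 12; 0% = biofilm with clotrimazole alone and 100% = kill control; retested singly at about 60 µM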
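Test system: C. albicans CAF4-2 wild-type biofilms; buffer or medium: RPMI/MOPS medium, pH 7.0; schedule: 24 h biofilm formation, then 48 h compound exposure, 37 °C; detection: Alamar Blue fluorescence; measure: percent inhibition of biofilm viability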
Starred values were filed as active, the others as inactive. An excerpt; the hit share may differ from the screen's.

smiles	Biofilm kill mix
CS(=O)(=O)N1CCC(Oc2ccccc2C(=O)NC2CCCCCC2)CC1	-3
O=C(CCc1ccccc1)Nc1cc(NC(=O)CCc2ccccc2)cc(C(=O)O)c1	20
O=c1c2ccccc2c(C=NCc2ccccn2)c(O)n1-c1ccccc1Cl	-1
O=C1CC(Cc2ccc(Cl)cc2)C(=O)N1c1ccncc1 (stereo not drawn)	16
Cc1ccc(S(=O)(=O)c2cc3cc(Br)ccc3oc2=O)cc1	11
CCc1ccc(NC(=O)Nc2cccc(OC)c2)cc1	20
COc1cc(/C=N/NC(N)=S)ccc1OCc1ccc(C)cc1	22
CC1=NN(c2ccccc2)C(=O)C1C(=O)C(=O)Nc1ccc(F)cc1 (stereo not drawn)	13
COc1ccc(Cl)cc1-c1nc(SCC(=O)N(C)CCC#N)n[nH]1	2
Nc1nc2ccccc2cc1S(=O)(=O)c1ccccc1	15
COc1cc(OC)cc(C(=O)Nc2cc(-c3cn4cccnc4n3)ccc2C)c1	1
CCN(CC)CC(=O)NCC1(c2ccccc2)CCCC1	12

(cont.)
smiles	Biofilm kill mix
Cc1ccccc1CNC(=O)CN(c1cccc([N+](=O)[O-])c1)S(C)(=O)=O	7
CCOC(=O)N1CCc2c(sc(NC(=O)CN3CCN(C)CC3)c2C(=O)Nc2ccccc2)C1	11
CC/C(=C\C1CCCCC1)C(NP(=O)(c1ccccc1)c1ccccc1)c1ccccc1 (stereo not drawn)	13
CCOc1ccc(CCNC(=O)CSc2cc(=O)n(C)c3ccccc23)cc1OCC	13
O=C(NCc1ccc2c(c1)OCO2)c1ccc(Cl)nc1	11
CCn1nc(NC(=O)c2ccccc2)c2cc3cccc(C)c3nc21	8
Cc1ccc(S(=O)(=O)N2CCN(C(C)CC(=O)O)CC2)cc1 (stereo not drawn)	11
O=C(Nc1nc2ccc(S(=O)(=O)N3CCCC3)cc2s1)c1ccccn1	7
O=C(Nc1cccc2c1CCCC2)c1cc([N+](=O)[O-])cc([N+](=O)[O-])c1	7
COc1cc(/C=C/c2sc3ccccc3[n+]2CCCS(=O)(=O)[O-])ccc1O	6
O=C(N/N=C/c1ccc(Cl)cc1)C(=O)N1CCCCCC1	14
N#Cc1ccc(C(=O)CSc2n[nH]c(=O)n2-c2cccnc2)cc1	2

Further entries follow.
smiles	Biofilm kill mix
CN(C)c1ccc(/C=N/NC(=S)NCc2ccco2)cc1	17
O=C(CSc1nc2ccccc2o1)N/N=C/c1ccccc1C(=O)O	15
CCOC(=O)C1=C(C)C2C3C(=O)N(c4ccccc4C)C(=O)C3C1(C)C1C(=O)N(c3ccccc3C)C(=O)C21 (stereo not drawn)	7
COc1ccc(OC)c(CCNC(=O)c2ccc(CS(=O)(=O)c3ccc(Br)cc3)o2)c1	8
O=C(Oc1ccccc1O)c1cccc2ccccc12	2
CCN1CCN(C(=O)C(=O)c2c(C)[nH]c3ccccc23)CC1	15
CCN1CCN(C(=O)c2cc3cc([N+](=O)[O-])ccc3oc2=O)CC1	7
Nn1c(-c2ccccc2Cl)nnc1-c1ccccc1Cl	6
Cc1c(NC(=O)COC(=O)CCC(=O)c2ccc(Cl)cc2)c(=O)n(-c2ccccc2)n1C	14
CN(C)CCCN(C(=O)c1ccc(S(=O)(=O)N(C)C)cc1)c1nc2cc3c(cc2s1)OCO3	16
Cc1c(Cl)cccc1NC(=S)N(Cc1cccs1)C1CCCC1	-6
Cc1ccc(NC2=NCC(=O)N2C2CCCC2)cc1	24

The listing continues:
smiles	Biofilm kill mix
COc1ccc(Br)cc1C(C[N+](=O)[O-])c1c(N)n(C)c(=O)n(C)c1=O (stereo not drawn)	5
O=C(CCCOc1ccccc1)Nc1ncccn1	18
CC1CCC2(CC1)NC(=O)N(CC(=O)N1CCN(S(=O)(=O)c3ccccc3)CC1)C2=O (stereo not drawn)	-2
O=C(CCS(=O)(=O)Cc1ccccc1)N1CCN(c2ccc([N+](=O)[O-])cc2)CC1	15
O=C(/C=C/c1ccccc1)N1CCC(c2ccccc2)C1 (stereo not drawn)	6
CCOC(=O)C(=O)Nc1nnc(CCc2ccccc2)s1	2
COC(=O)c1ccccc1NC(=O)Nc1ccc(Br)cn1	9
CC(C)(C)OC(=O)NNC(=O)C12CC3CC(CC(C3)C1)C2	13
NC(=O)c1ccc(NC(=O)COC(=O)/C=C/c2ccc3c(c2)OCO3)cc1	16
CS(=O)Cc1cc(Sc2ccccc2)nc(-c2ccncc2)n1 (stereo not drawn)	13
OCC1(Cc2ccccc2)CCCN(Cc2ccc3c(c2)OCCO3)C1 (stereo not drawn)	10
CCCCOn1c(C)c(C(C)=O)c2c3no[n+]([O-])c3ccc21	-10

Retrieved one by one from the list above, five records:
smiles	Biofilm kill mix
CC1CCC2(CC1)NC(=O)N(CC(=O)N1CCN(S(=O)(=O)c3ccccc3)CC1)C2=O (stereo not drawn)	-2
CC(C)(C)OC(=O)NNC(=O)C12CC3CC(CC(C3)C1)C2	13
CS(=O)Cc1cc(Sc2ccccc2)nc(-c2ccncc2)n1 (stereo not drawn)	13
COc1ccc(Br)cc1C(C[N+](=O)[O-])c1c(N)n(C)c(=O)n(C)c1=O (stereo not drawn)	5
O=C(CCCOc1ccccc1)Nc1ncccn1	18

Going on with the list:
smiles	Biofilm kill mix
S=C(NCc1cccnc1)Nc1cccc2ccccc12	11
O=c1c2cnn(-c3ccc(F)cc3)c2ncn1Cc1ccc(F)cc1	12
O=C(NCc1cccnc1)Nc1cccc(F)c1	17
CC(=O)NC(Cc1ccccc1)C(=O)N1CCN(C(=S)NCC(C)C)CC1 (stereo not drawn)	21
COc1nsnc1NS(=O)(=O)c1ccc(NC(=S)NC(=O)c2cccnc2)cc1	10
Nc1n[nH]c(N)c1N=Nc1ccc2c(c1)OCO2	10
COc1cc(Nc2c3c(nc4ccccc24)CCCC3)cc(OC)c1OC	6
CC(=O)Cc1c(C(=O)O)c(C)nn1-c1ccccc1	20
COc1ccc(C(C(=O)NC2CCCCC2)N(C(=O)CCl)c2cccc(Cl)c2)cc1 (stereo not drawn)	15
O=C(O)Cc1ccc(S(=O)(=O)Nc2ccccc2C(=O)O)cc1	21
Cn1nc(C(F)(F)F)c2cc(C(=O)Nc3ccc(F)c(Cl)c3)sc21	11
COCCn1c(SCC(=O)Nc2ccc(N3CCOCC3)cc2)nc2ccccc21	19

Next part:
smiles	Biofilm kill mix
C#Cc1ccc([C@H]2C=C(C(=O)N3CCN(Cc4ccc5c(c4)OCO5)CC3)O[C@@H](OCc3ccc(CO)cc3)C2)cc1	18
Cc1ccc(Cl)cc1NC(=S)N(CCN(C)C)C(C)c1ccccn1 (stereo not drawn)	19
COC(=O)c1cc2nc(-c3ccccc3)cc(C(F)(F)F)n2n1	10
CCOC(=O)C1CCCN(CCC(=O)Nc2ccc(C)cc2)C1 (stereo not drawn)	6
CC(C)C[C@H](NC(=O)c1nc[nH]c1C(=O)NC1CCN(C(=O)OC(C)(C)C)CC1)C(=O)OCc1ccccc1	18
COc1ccc(CC(=O)NNS(=O)(=O)c2ccc3ccccc3c2)cc1OC	6
C/C(=N/NC(=O)C1CC1(c1ccccc1)c1ccccc1)c1cccs1 (stereo not drawn)	21
CCOC(=S)SCC(=O)N1CCc2ccccc2C1C1C(=O)CCCC1=O (stereo not drawn)	9
COC(=O)c1ccc(C(NC(=O)OCc2ccccc2)/C(C)=C/[C@@H](C)C(=O)NCc2ccc(-c3ccccc3)cc2)cc1 (stereo partly drawn)	14
COc1cccc(/C=C/C(=O)c2cccc([N+](=O)[O-])c2)c1	7
CC(C)(C)CC(C)(C)NC(=S)Nc1ccc(S(=O)(=O)N2CCOCC2)cc1	16
Cc1ccc(S(=O)(=O)N2CCOCC2)cc1NC(=O)COC(=O)C1COc2ccccc2O1 (stereo not drawn)	24

(continued)
smiles	Biofilm kill mix
O=C1CC(/C=C/c2ccc(Cl)cc2)=Nc2ccccc2N1	7
O=[N+]([O-])c1nn(-c2ccc(Cl)cc2)n(O)c1=NCc1cccnc1	6
N#CC1C(C#N)N2CCCN2C1c1ccc(Br)cc1 (stereo not drawn)	7
S=C(Nc1ccccc1Cl)N1CCC(c2ccccc2)C1 (stereo not drawn)	8
CCOC(=O)CC1C(=O)NCCN1c1nc2c(C)cccn2c(=O)c1/C=C1\SC(=S)N(C(C)CC)C1=O (stereo not drawn)	18
COC(=O)c1scc(S(=O)(=O)C(C)C)c1N/N=C(\C#N)C(=O)c1ccc(Cl)cc1	10
O=C(c1noc2c1CCCC2)N1CCC(CO)(Cc2ccccc2Cl)CC1	9
O=C(CCC(=O)Nc1ccc(F)cc1)N/N=C/c1ccc(O)cc1O	10
O=C(COC(=O)CCCN1C(=O)c2cccc3cccc(c23)C1=O)Nc1cccc(Br)c1	17
CC(C)Cc1nnc(NC(=O)CCC(=O)NC2CCCc3ccccc32)s1 (stereo not drawn)	8
CC1=NN(C(=O)Cn2ccc([N+](=O)[O-])n2)C(O)(C(F)(F)F)C1 (stereo not drawn)	8
COc1ccc(N2CCN(C(CNC(=O)C(C)(C)C)c3ccco3)CC2)cc1 (stereo not drawn)	-8

Carrying on:
smiles	Biofilm kill mix
O=C(OCCN1C(=O)c2ccccc2C1=O)c1ccco1	14
Cc1cc([N+](=O)[O-])cc(C)c1OCC(=O)N/N=C/c1ccc(OC(=O)c2ccccc2)cc1	1
Cc1nc2ccccc2n1CC(=O)OCC(=O)NC1CC1	21
CCOc1ccc(CN2CCN(Cc3cc4ccccc4[nH]3)CC2CCO)cc1 (stereo not drawn)	-9
CC(=O)N1c2ccccc2N(Cc2ccc([N+](=O)[O-])cc2)C(=O)C1(C)C	-14
CN1CCC(=NNC(=O)c2cn(-c3ccccc3)nc2-c2ccccc2)CC1	18
COc1ccc(-c2cn[nH]c2-c2ccc(OCc3ccccc3F)cc2O)cc1OC	16
COc1ccc(NC(=O)c2[nH]c(C)c(C(C)=O)c2C)cc1S(=O)(=O)Nc1ccc(Br)cc1	8
CCc1cc(CC)c(/C=N/NC(N)=O)c(CC)c1	6
CCOC(=O)C(C(=O)OCC)C1CCS(=O)(=O)C1 (stereo not drawn)	4
O=C(Nc1cccc(Cl)c1)NC1CC2CCC(C1)N2Cc1cccs1 (stereo not drawn)	23
CC(C)C(C)NC(=O)CN1C(=O)NC2(CCCCCC2)C1=O (stereo not drawn)	-4

Further structures follow.
smiles	Biofilm kill mix
Cn1nc(C(=O)NNC(=O)COc2ccccc2)c2ccccc2c1=O	11
COc1ccc(CCNC(=O)CSc2ccc(-c3cccs3)nn2)cc1	12
CC(=O)Oc1ccc(S(=O)(=O)c2ccc(OC(C)=O)cc2)cc1	2
O=C(CCS(=O)(=O)Cc1ccc(Cl)cc1)NCCc1ccccc1	8
CCO[C@H]1OC(C(N)=O)=C[C@@H](c2ccccc2)[C@@H]1CCCO	18
COc1c(C)cc(Br)cc1C(=O)Nc1ccc(C)cc1[N+](=O)[O-]	18
COc1ccc(CCn2c(N)c(C(=O)NCc3ccco3)c3nc4ccccc4nc32)cc1	3
Cc1nc2c(C)cccc2c2c1CCN2c1ccccc1F	10
CCOC(=O)CN(C(=O)CNC(=O)c1ccco1)C(C(=O)NC1CCCCC1)c1cccc(OC)c1 (stereo not drawn)	13
CN(C)c1ccc(C2SCCN2C(=O)c2ccc([N+](=O)[O-])cc2)cc1 (stereo not drawn)	17
CCOC(=O)C1CCCN(Cc2nc(C3CC3)no2)C1 (stereo not drawn)	11
CCCC(=O)Nc1nnc(-c2ccc3c(c2)OCO3)s1	17

Further structures follow.
smiles	Biofilm kill mix
O=C(NCc1ccccc1)C1CCCN(c2nc3ccsc3c(=O)s2)C1 (stereo not drawn)	9
CC1CN(c2ccc([N+](=O)[O-])nc2)CC(C)O1 (stereo not drawn)	14
COCCNC(=S)NNc1ccccc1[N+](=O)[O-]	2
Fc1cccc(Cl)c1CSc1ccc(-c2ccco2)nn1	14
COCCn1c(SCC(=O)N2CCc3ccccc32)nc2c(c1=O)SC(C)C2 (stereo not drawn)	11
CCOC(=O)C[N+]1(C)CCN(C(C)=O)CC1	-9
Cc1ccccc1OCC(=O)N/N=C/c1ccncc1	10
Cc1ccccc1C1NC(=S)NC2=C1C(=O)CCC2 (stereo not drawn)	7
CCC(=O)Nc1ccc(C(=O)Cn2ncc(Cl)c(Cl)c2=O)cc1	15
Nc1cnc(Nc2ccc(Br)cc2)nc1N	13
O=C(Nc1ccc(-c2ccc3nncn3n2)cc1)c1ccc(Br)o1	10
CCn1c(SCC(=O)N/N=C/c2ccccc2OCC(=O)O)nnc1-c1ccc(C)cc1	23
COc1ccccc1-n1c(SCC(=O)Nc2nnc(C)s2)nc2c(c1=O)SCC2	20

By substructure, those above with bromine.
smiles	Biofilm kill mix
Cc1ccc(S(=O)(=O)c2cc3cc(Br)ccc3oc2=O)cc1	11
COc1ccc(OC)c(CCNC(=O)c2ccc(CS(=O)(=O)c3ccc(Br)cc3)o2)c1	8
COc1ccc(Br)cc1C(C[N+](=O)[O-])c1c(N)n(C)c(=O)n(C)c1=O (stereo not drawn)	5
COC(=O)c1ccccc1NC(=O)Nc1ccc(Br)cn1	9
N#CC1C(C#N)N2CCCN2C1c1ccc(Br)cc1 (stereo not drawn)	7
O=C(COC(=O)CCCN1C(=O)c2cccc3cccc(c23)C1=O)Nc1cccc(Br)c1	17
COc1ccc(NC(=O)c2[nH]c(C)c(C(C)=O)c2C)cc1S(=O)(=O)Nc1ccc(Br)cc1	8
COc1c(C)cc(Br)cc1C(=O)Nc1ccc(C)cc1[N+](=O)[O-]	18
Nc1cnc(Nc2ccc(Br)cc2)nc1N	13
O=C(Nc1ccc(-c2ccc3nncn3n2)cc1)c1ccc(Br)o1	10
